From PubChem BioAssay
CDC25B CDK2 inh – human CDC25B-CDK2/CyclinA binding inhibition; HTRF CDC25B-CDK2/CyclinA binding, anti-His/anti-Flag; stronger effect = higher value; z-score (test concentration not listed); actives 0.72% (n = 94,000); P30305+P24941;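 further: score is relative to mean and SD of negative controls; strong numbers were not always called active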
HIV TAR-Tat – HIV-1 TAR-Tat binding disruption | HIV-1 TAR RNA, Tat peptide displacement FRET; stronger effect = higher value | z-score (no concentration beside the values) | actives 0.6% (n = 100,000);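 further: score is relative to mean and SD of negative controls; some compounds called inactive have numbers as strong as hits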
Active calls of the source: *; . = not tested or not shown.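 How the source made its calls: active means z-score from 3 up in half or more of its runs; inactive means the rest.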

SMILES | CDC25B CDK2 inh | HIV TAR-Tat
CSc1cccc(NC(=O)C2=Cc3sc4c(c3CS2)CCCC4)c1 | . | -2.28
CCC(Sc1nnc(C)c(=O)[nH]1)C(=O)Nc1cccc2ccccc12 (configuration not stated) | -2.36 | .
COC(=O)c1c(NC(=O)c2nn(-c3ccc(Cl)cc3)ccc2=O)sc2c1CCCC2 | -1.06 | 0.8
O=C(O)CCc1ccc(NCc2cccc(Oc3ccccc3)c2)cc1 | 2.65 | .
CC1(C)/C(=C\CC(=O)O)C2CCC1C2 (configuration not stated) | -0.54 | .
Cc1ccc2[nH]c3c(c2c1)CCCC3NCCCO (configuration not stated) | -0.09 | .
Cc1cc(=O)cc(C)n1-c1ccccc1O | -0.6 | .
COC(=O)c1cscc1NC=C(C#N)C#N | -1.97 | .
CCCCCNC(=O)c1sc(=S)n(-c2ccccc2)c1N | . | 1.03
Cc1cc(NC(=O)c2nn(C)c3c2COc2ccccc2-3)no1 | -1.3 | 0.68
O=C1CC(N2CCN(c3cccc(Cl)c3)CC2)C(=O)N1c1cccc(Br)c1 (configuration not stated) | 0.15 | 1.29
CC(C)NC(=O)Cn1ncc2ccsc2c1=O | -2.69 | 0.53
CN1C(=O)C(CC(=O)NC2CCCCC2)Sc2ccc(S(=O)(=O)N(C)C)cc21 (configuration not stated) | . | 1.5
CN1CC(=O)Nc2cc(C(=O)NCC3CCCO3)ccc21 (configuration not stated) | . | 1.09
COc1ccc(COC(=O)C2=C(C)NC3=C(C(=O)CC(C)(C)C3)C2c2ccc3c(c2)OCO3)cc1 (configuration not stated) | -1.39 | 2.9
c1nc(NCc2ccc3c(c2)OCO3)c2[nH]cnc2n1 | 0.26 | -0.47
COc1ccc(OC)c(S(=O)(=O)N2CC=C(c3c(C)[nH]c4ccccc34)CC2)c1 | 0.26 | -0.87
CC(C)C(=O)Nc1nc(-c2ccc(Br)cc2)ns1 | -0.83 | -0.03
Cc1cc(C)cc(Nc2nn3c(=O)c4ccccc4nc3s2)c1 | -2.7 | .
O=C(C1CCN(c2nnc(-n3cccc3)s2)CC1)N1CCc2ccccc2C1 | -1.51 | 1.65
COc1ccc(CC(=O)NNC(=S)Nc2ccccc2)cc1 | -1.53 | .
O=S(=O)(Nc1cc(F)ccc1F)c1ccc2[nH]c3c(c2c1)CCCCC3 | . | 0.73
C=CCNc1nc(N)c([N+](=O)[O-])c(Nc2ccc(C)cc2)n1 | . | -0.33
Cc1ccccc1CNc1nc(NC2CCCC2)nc2c1cnn2C | . | 1.31

Quoted from the listing:
Under HIV TAR-Tat, `O=S(=O)(Nc1cc(F)ccc1F)c1ccc2[nH]c3c(c2c1)CCCCC3` is entered as 0.73
Under HIV TAR-Tat, `CCCCCNC(=O)c1sc(=S)n(-c2ccccc2)c1N` is entered as 1.03
Under CDC25B CDK2 inh, `Cc1cc(C)cc(Nc2nn3c(=O)c4ccccc4nc3s2)c1` is entered as -2.7
Under CDC25B CDK2 inh, `O=C(O)CCc1ccc(NCc2cccc(Oc3ccccc3)c2)cc1` is entered as 2.65
Under CDC25B CDK2 inh, `COc1ccc(CC(=O)NNC(=S)Nc2ccccc2)cc1` is entered as -1.53

Ordered by SMILES length (ascending): part of the list above.
SMILES | CDC25B CDK2 inh | HIV TAR-Tat
COC(=O)c1cscc1NC=C(C#N)C#N | -1.97 | .
CN1CC(=O)Nc2cc(C(=O)NCC3CCCO3)ccc21 (configuration not stated) | . | 1.09
CCC(Sc1nnc(C)c(=O)[nH]1)C(=O)Nc1cccc2ccccc12 (configuration not stated) | -2.36 | .
CN1C(=O)C(CC(=O)NC2CCCCC2)Sc2ccc(S(=O)(=O)N(C)C)cc21 (configuration not stated) | . | 1.5

Among those listed so far, these contain an aryl methoxy group:
SMILES | CDC25B CDK2 inh | HIV TAR-Tat
COc1ccc(COC(=O)C2=C(C)NC3=C(C(=O)CC(C)(C)C3)C2c2ccc3c(c2)OCO3)cc1 (configuration not stated) | -1.39 | 2.9
COc1ccc(OC)c(S(=O)(=O)N2CC=C(c3c(C)[nH]c4ccccc34)CC2)c1 | 0.26 | -0.87
COc1ccc(CC(=O)NNC(=S)Nc2ccccc2)cc1 | -1.53 | .

Returning to the listing; the six compounds before the break are reprinted first.
SMILES | CDC25B CDK2 inh | HIV TAR-Tat
Cc1cc(C)cc(Nc2nn3c(=O)c4ccccc4nc3s2)c1 | -2.7 | .
O=C(C1CCN(c2nnc(-n3cccc3)s2)CC1)N1CCc2ccccc2C1 | -1.51 | 1.65
COc1ccc(CC(=O)NNC(=S)Nc2ccccc2)cc1 | -1.53 | .
O=S(=O)(Nc1cc(F)ccc1F)c1ccc2[nH]c3c(c2c1)CCCCC3 | . | 0.73
C=CCNc1nc(N)c([N+](=O)[O-])c(Nc2ccc(C)cc2)n1 | . | -0.33
Cc1ccccc1CNc1nc(NC2CCCC2)nc2c1cnn2C | . | 1.31
O=C(Cn1c(=O)oc2cc(S(=O)(=O)NC3CCCC3)ccc21)NC1CCCCCCC1 | 0.01 | .
CCCC1=C(C(=O)OCC)C(c2ccccc2F)n2c(nc3ccccc32)N1 (configuration not stated) | -2.09 | -0.03
O=C(Nc1ccc(F)c(Cl)c1)c1[nH]nc2c1CCc1ccccc1-2 | . | 1.2
Cc1ccc(N(C)S(=O)(=O)c2ccc3c(c2)C(C)(C)C(=O)N3C)cc1C | . | 0.5
Cc1ccc(C)c(Nc2nn3c(=O)c4cc5c(cc4nc3s2)OCO5)c1 | -3.51 | 0.85
O=C(NCCc1ccco1)c1cccn1-c1nnc(N2CCCC2)s1 | . | 0.19
Cn1c(SCC(=O)N2CCOCC2)ncc(C(=O)Nc2ccccc2)c1=O | . | 0.95
N#C/C(=C\c1ccc(OC(=O)c2cccs2)cc1)c1ccccn1 | -1.35 | .
O=C(CC1(O)C(=O)N(Cc2ccccc2)c2ccccc21)c1ccc(Br)cc1 (configuration not stated) | -0.39 | .
Cn1c(Cn2c(=O)sc3ccccc32)nnc1SCC(=O)Nc1ccc(Cl)cc1 | -1.45 | .
Nc1cccc(CCc2ccccn2)c1 | -1.3 | .
COc1ccc(N2CCN(c3oc(COc4ccc(F)cc4)nc3C#N)CC2)cc1 | -3.03 | -0.95
Cc1cccc(NC(=O)c2c(O)c3cccc4c3n(c2=O)CCC4)n1 | . | 3.18
Cc1ccc(-c2cc(C(=O)O)c3c(-c4ccc(F)cc4)[nH]nc3n2)cc1 | . | 2.92
CCCN1CCN(C(=O)CN2C(=O)CSc3ccc(S(=O)(=O)N(CC)CC)cc32)CC1 | -0.61 | 0.06
CCN1CCN(Cc2nc(N)nc(Nc3ccc(C)c(Cl)c3)n2)CC1 | . | 2.1
COc1ccc(C(=O)CSc2n[nH]c(C)n2)cc1Br | -1.61 | 0.11
CS(=O)(=O)c1cccc(-c2nnc(NC(=O)c3ccc4c(c3)OCCO4)o2)c1 | . | 0.32
Cc1cc2c(cc1NS(=O)(=O)c1ccc(Br)cc1)n(C)c(=O)c(=O)n2C | . | -0.14
COc1ccc(-c2c3c(=O)n(C)c(=O)n(C)c3c3n2-c2ccccc2NC3c2ccc(O)cc2O)cc1 (configuration not stated) | 0.73 | -1.3
Cc1cccc(N(C)c2c(-c3cc(C)c(C)cc3C)c(=O)c2=O)c1 | . | -0.45
COC(=O)c1sc(=S)n(-c2ccc(F)cc2F)c1N | . | 1.22
CCn1cc(S(=O)(=O)c2ccc(OC)cc2)c(=O)c2cc(F)c(N3CCCC(C)C3)cc21 (configuration not stated) | . | -0.29
Nc1c(-c2nc(-c3ccccc3F)no2)nnn1-c1ccc(F)cc1 | . | 1.05
CCn1nc(C)c(Br)c1C(=O)NNC(=O)c1ncc(C(F)(F)F)cc1Cl | -1.33 | .
CCCCC(=O)Nc1nnc2n1CCCS2 | . | 2.14
CCCSc1ccc2nc(NC(=O)CSc3nc(SC)ns3)[nH]c2c1 | 1.43 | 2.04
COc1cccc(Cc2nnc(-c3ccc4nsnc4c3)o2)c1 | -0.38 | .
CCOc1ccc(N2CC(c3nc4ccccc4n3C(C)C)CC2=O)cc1 (configuration not stated) | -2 | -2.4
CCOCCOC(=O)C1=C(C)NC2=C(C(=O)CCC2)C1c1cccc(F)c1 (configuration not stated) | -0.84 | 1.11
Cc1cc2ncn(CCc3noc(-c4ccccc4)n3)c2cc1C | 0.28 | 0.86
COc1cccc(-c2noc(NCc3ccc4c(c3)OCO4)n2)c1OC | . | -0.08
O=c1c(-c2ccc3c(c2)CCCC3)c(N2CCCc3ccccc32)c1=O | . | 0.07
CCOC(=O)[C@H](CCc1ccccc1)N[C@@H](C)C(=O)N1[C@H](C(=O)O)C[C@H]2CCCC[C@@H]21 | -0.73 | .
CCSc1nnc(NC(=O)C2CC2c2ccccc2)s1 (configuration not stated) | -1.11 | .
CC(C)(C)c1nnc2sc(-c3ccco3)nn12 | -1.05 | -0.36
O=C(NCc1ccco1)C(=O)Nc1ccc2nc3n(c(=O)c2c1)CCCCC3 | -0.68 | .
Cn1c(=O)c2c(-c3cccc(Cl)c3)c(Nc3ccccc3)oc2n(C)c1=O | . | 1.29
O=C(O)c1c[nH]c2ccc(S(=O)(=O)N3CCc4ccccc4C3)cc2c1=O | . | 1.16
CCCC1c2ccc(C)n2CCN1C(=O)Nc1ccc(F)cc1 (configuration not stated) | -0.96 | -1.04
COC(CNC(=O)C(=O)Nc1nnc(C(F)(F)F)s1)OC | 0.51 | .
COc1ccc(CCNC(=O)c2ccccc2)cc1OC | -1.28 | .
c1ccc(COC(CNC2CCCCC2)CNC2CCCCC2)cc1 | 0.1 | .
CCOC(=O)C(=CNCCNc1ncccc1C(F)(F)F)C(=O)OCC | -3.05 | .
CC(C)n1c(CN2CCCC2)nc2ccccc21 | -0.03 | -0.46
O=C(NCCO)NCCSc1ccc(F)cc1 | -0.48 | .
CC1CCCCC1NC1=C(C(=O)N2CCOCC2)S(=O)(=O)c2ccccc21 (configuration not stated) | . | 1.41
CC1SC(=NC(=O)C(C)N2C(=O)c3ccccc3C2=O)NC1=O (configuration not stated) | -2.9 | .
Cc1ccc(CNS(=O)(=O)c2ccc3c(c2)NC(=O)CCS3)o1 | . | 1.18
Cc1cc(C)c(S(=O)(=O)NCCc2csc3nc(-c4cccc(F)c4)nn23)c(C)c1 | . | 2.14
O=C(CCCN1C(=O)c2ccccc2Sc2ncccc21)N1CCN(C2CCCCC2)CC1 | . | -1.1
CSc1ncc(C(=O)Nc2ccc(Cl)cn2)c(C)n1 | . | -3.74
Clc1ccc(Cn2c(-c3cncs3)nc3ccccc32)cc1 | -0.18 | 0.4
Cc1ccc(Cl)cc1NC(=O)C1CC2CCCN2C12C(=O)Nc1ccccc12 (configuration not stated) | . | -0.88
COc1ccc(C2N(c3ccc(F)cc3)C(=O)C3CCCN32)cc1OC (configuration not stated) | -2.58 | -2.25
CS(=O)(=O)N1CCC(C(=O)NCc2csc(-c3cccs3)n2)CC1 | . | 0.69
CCOC(=O)C1=C(C)NC2=C(C(=O)c3ccccc32)C1c1ccc(OCC(=O)O)c(Cl)c1 (configuration not stated) | -0.19 | -0.09
O=C1C(=O)N(CCCN2CCOCC2)C(c2ccc(F)cc2)/C1=C(\O)c1ccc(Cl)cc1 (configuration not stated) | -1.52 | 0.01
O=C(Nc1ccc2c(c1)OCO2)c1cnn2c1NC(c1ccco1)CC2C(F)(F)F (configuration not stated) | -0.74 | -1.4
O=C(CCC1N=C2c3ccccc3N=C(SCc3ccc(Cl)cc3)N2C1=O)NCc1ccco1 (configuration not stated) | . | 0.98
The list goes on.
SMILES | CDC25B CDK2 inh | HIV TAR-Tat
CCC(CC)C(=O)Nc1c(C(=O)N2CCN(c3ccccn3)CC2)oc2ccccc12 | 1.42 | 1.36
CCOc1cc(C2C(C(=O)OC(C)C)=C(C)NC3=C2C(=O)CC(c2ccccc2)C3)ccc1O (configuration not stated) | -0.74 | 0.35
O=C(NC1(C(F)(F)F)NC(=O)N(Cc2ccco2)C1=O)c1ccc(Cl)cc1 (configuration not stated) | -1.5 | .
CCOc1cc(-c2cc(O)c3c(C)oc(C)c3c(=O)c2)ccc1O | -1.68 | -4.74
CCc1cc2c(cc3c(=O)n(CC(=O)NCC4CCCN4CC)nc(CC)n32)s1 (configuration not stated) | 0.77 | .
CCOc1ccc2nc(NC(=O)Nc3cn(C)c(=O)c4ccccc34)sc2c1 | . | -2.03
Cc1nnsc1C(=O)Nc1cccnc1 | -0.76 | 1.3
CNc1n[nH]c(N)c1-c1nc(-c2ccc(OC)cc2)no1 | 0.26 | -3.34
CCOc1ccc(NC(=O)Nc2cccs2)cc1 | 1.32 | -1.82
CCCN1CCn2c(nc3cc(Cl)ccc32)C1 | -1.58 | 1.06
O=C(NC1CC1)c1cnn2c(-c3ccccc3)cc(-c3ccccc3)nc12 | . | -0.09
CCC(=O)Oc1ccc2oc(-c3ccc(OC)cc3)cc(=O)c2c1 | -1.24 | -0.71
